# Assay outcomes (PubChem BioAssay)
# NPYLR7 agonist: mosquito NPYLR7 agonism; HEK293T NPYLR7/Galpha15, GCaMP6s calcium fluorescence; activation, % at 10 µM; 270,000 compounds, 0.15% hits; in the data active = activation above about 40%;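 also: 0% = vehicle and 100% = reference agonist at the receptor; some compounds past the cut are filed as inactive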
# NPYLR7 agonist max-min: further read-out of NPYLR7 agonist, marked with its call; activation, %; measured here: Max-Min RFU normalised activation; some inactives read as strong as hits;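 span of the calcium signal over five minutes; 0% = vehicle and 100% = native peptide agonist; compound fluorescence can raise it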
# * = called active by the depositor. Some of the compounds tested (hit frequency here may not be typical).
SMILES,NPYLR7 agonist,NPYLR7 agonist max-min
O=C(CNC(=O)C1CC1(c1ccccc1)c1ccccc1)NCCc1ccccn1 (stereo not drawn),0,-7
CCc1ncc(C(=O)N2CC[C@@H](c3ccc4ccccc4c3)[C@H](O)C2)cn1,1,0
COCCN(CC(=O)N(Cc1cccn1Cc1ccccc1Cl)C1CCCCC1)C(=O)c1cc(OC)cc(OC)c1,-5,2
CC(O)CC(C)(C)CNC(=O)C(C(C)C)N1CCCCC1 (stereo not drawn),-2,-2
CCCN1COc2ccc3c(=O)c(-c4ccccc4)coc3c2C1,2,4
CNc1ncnc2c1C(c1ccc(Br)cc1)c1c(NC)ncnc1O2,5,6
CCC1CCCN(C(=O)c2ccc(Cl)c3cccnc23)C1 (stereo not drawn),11,7
Cc1ccc(S(=O)(=O)N2CCN(C(=O)CCc3ncc(-c4ccc(C)c(C)c4)o3)CC2)c(C)c1,1,0
CCSC[C@H](N)C(=O)N1CCN(C)C2(CCN(C)CC2)C1,7,3
CCC1CN(Cc2cccc3nccnc23)Cc2cc(OC)ccc2O1 (stereo not drawn),2,-2
Cc1sc(NC(=O)CN2C(=O)c3ccccc3C2=O)nc1-c1ccccc1,-5,-8
COCCSc1nc2sc(C)c(C)c2c(=O)n1Cc1ccccn1,2,1
COc1cccc(-c2nc(C(N)=O)c3[nH]c(=O)n(-c4ccc5c(c4)OCO5)c3n2)c1,-3,-7
COc1ccccc1-c1c(C)nn2c(N3CCN(Cc4ccccc4)CC3)cc(C)nc12,1,8
Cc1cc(NC(=O)CNc2ccc(C#N)cc2)no1,-1,0
Cc1c([N+](=O)[O-])c([N+](=O)[O-])nn1CC(=O)Nc1sc2c(c1C#N)CCCC2,5,6
C=c1c(C#N)c2[nH]c(N)c(C#N)c(C)c-2/c1=C/c1ccc(-c2ccccc2[N+](=O)[O-])o1,3,3
CC(=O)NC(C(=O)N1CCOC(c2ccccc2)C1)C(C)C (stereo not drawn),0,-1
CSc1ccccc1N=CC=C1N(C)c2ccccc2C1(C)C,-7,-9
COc1cccc(-c2nc(Cn3nnc(C(=O)Nc4cccc(C)c4C)c3C)c(C)o2)c1OC,12,3
CCOC(=O)Nc1sc2c(c1C(=O)OCC)CCC2,6,2
CC(C)(C)C(=O)N1CCC(=NNc2ccc(C(=O)O)cc2)CC1,18,16
CCCc1c(OCCCOc2ccc(OCC(=O)O)cc2)ccc(CC=O)c1O,-12,-19
Cc1cnc2c(C(=O)NCCC3COc4ccccc4O3)cnn2c1 (stereo not drawn),0,9
COCCN(CCOC)Cc1cc(=O)oc2cc(-c3ccccc3)c(O)cc12,12,13
Nc1c(C(=O)Nc2nccs2)sc2nc3c(c(-c4cccs4)c12)CCCCC3,7,6
O=C(c1cn[nH]n1)N1CCC2(CC1)CCN(c1ccccc1)C2=O,2,2
COc1ccc(NC(=O)N2CCc3ccccc3C2c2ccc(Cl)cc2)cc1OC (stereo not drawn),10,5
COc1ccc(C(=O)N(CC(=O)N(CCc2c[nH]c3ccccc23)Cc2ccccc2OC)C(C)C)cc1,-1,2
Cc1ccc(C=Nn2c(C)cc(C)c(C#N)c2=O)s1,1,-1
C=CCSc1nnc(NC(=O)c2cccc(OC)c2)s1,24,21
COc1ccc(-n2c(C)c(C)n3c4c(=O)n(CCN5CCCCC5)c(=O)n(C)c4nc23)cc1,3,1
COc1cncc(-c2ccc(O)cc2)c1,-6,-7
CCCn1c(SC(C)C(=O)NC(=O)NC)nc2cc(Cl)ccc21 (stereo not drawn),11,6
CCOC(=O)c1sc(NC(=O)c2ccoc2)nc1C,1,8
CCc1ncc(CN2CCc3[nH]cnc3C2c2ccc(OC)cc2F)cn1 (stereo not drawn),10,1
CN(c1cc(C(=O)NCCC#N)c2ccccc2n1)C1CCCCC1,24,14
Cc1cc(C)cc(C(=O)NNC(=O)c2ccccn2)c1,-7,-10
CCOC(=O)Cn1c2ccccc2n2nc(CCC(=O)O)c(=O)nc12,10,8
CC1ON=C(c2ccc(F)cc2)NC1=O (stereo not drawn),8,3

# Single records, from the list above. Order of screens: NPYLR7 agonist	NPYLR7 agonist max-min
# `CN(c1cc(C(=O)NCCC#N)c2ccccc2n1)C1CCCCC1` is listed as 24	14
# `COc1ccc(-n2c(C)c(C)n3c4c(=O)n(CCN5CCCCC5)c(=O)n(C)c4nc23)cc1` is listed as 3	1

# (further entries)
SMILES,NPYLR7 agonist,NPYLR7 agonist max-min
C=CCN(Cc1ccc(OC)cc1)Cc1cc(=O)n2cc(C)ccc2n1,17,17
COc1ccc(CCOc2nc(-c3ccc(Cl)c(Cl)c3)n(-c3ccc(NC(=O)c4ccc(F)cc4)cc3)n2)cc1,-6,7
COc1cccc(CN2CCCC2C(=O)Nc2ccc(-n3ccnc3C)cc2)c1 (stereo not drawn),4,3
N#CC1C(=N)Oc2n[nH]c(-c3ccc(F)cc3)c2C1c1ccc2c(c1)OCO2 (stereo not drawn),2,-3
C=CCN(CC=C)c1nc(-c2ccc(C)cc2)nc2ccccc12,2,-2
O=C(Nc1cccc(-c2cnco2)c1)C1CCCN1C(=O)C1CCCCC1 (stereo not drawn),6,2
COc1ccc(CN(C(=O)c2cc(C(F)(F)F)cc(C(F)(F)F)c2)C(C)C)cc1OS(C)(=O)=O,-7,4
CCCCNC(=O)CN(C)C1CCCNC1 (stereo not drawn),3,-2
Cn1nc(C(=O)Nc2cccc(C(=O)NC3CC3)c2)ccc1=O,3,10
Cc1ccsc1CCNC(=O)CCC1CCCCN1C (stereo not drawn),3,-10
Cn1ncnc1CCNC(=O)c1ccc(C2SCCS2)cc1,-4,-3
CCc1ccc(C2c3cccn3CCCN2Cc2cccc(OC)c2)cc1 (stereo not drawn),9,15
CCCNC(=O)c1cc(C2CCCCN2C(=O)OC)on1 (stereo not drawn),0,-3
O=C(CBr)c1cc2ccccc2o1,-4,-6
Cc1ccoc1C(=O)NCc1cccnc1N(C)Cc1ccccc1,4,2
CCCN(C)c1cc(C(C)(C)C)nc(SCc2cccc(C(=O)NCc3ccncc3)c2)n1,-1,9
OC(c1cccs1)C1CCN(Cc2cnn3cccnc23)CC1 (stereo not drawn),-4,-4
CC(C)Oc1ccc(C(=O)O)cc1NS(=O)(=O)c1cc(Cl)sc1Cl,-2,17
CC(C)COc1nc(-c2ccccc2F)n(-c2ccc(NC(=O)c3cccs3)cc2)n1,14,19
Fc1cccc(CN2CCN(Cc3cnc(NCC4CCCO4)nc3)CC2)c1 (stereo not drawn),9,10

# Grouped by structure: the entries above containing an NH in an aromatic ring (6)
SMILES,NPYLR7 agonist,NPYLR7 agonist max-min
COc1cccc(-c2nc(C(N)=O)c3[nH]c(=O)n(-c4ccc5c(c4)OCO5)c3n2)c1,-3,-7
C=c1c(C#N)c2[nH]c(N)c(C#N)c(C)c-2/c1=C/c1ccc(-c2ccccc2[N+](=O)[O-])o1,3,3
O=C(c1cn[nH]n1)N1CCC2(CC1)CCN(c1ccccc1)C2=O,2,2
COc1ccc(C(=O)N(CC(=O)N(CCc2c[nH]c3ccccc23)Cc2ccccc2OC)C(C)C)cc1,-1,2
CCc1ncc(CN2CCc3[nH]cnc3C2c2ccc(OC)cc2F)cn1 (stereo not drawn),10,1
N#CC1C(=N)Oc2n[nH]c(-c3ccc(F)cc3)c2C1c1ccc2c(c1)OCO2 (stereo not drawn),2,-3

# Other compounds follow:
SMILES,NPYLR7 agonist,NPYLR7 agonist max-min
O=C(Cc1ccccc1)Nc1ccc2nc(NC(=O)Cc3ccccc3)sc2c1,-7,-7
COc1ccc(NC(=O)N(CC(=O)Nc2c(-c3ccccc3)c(C)nn2-c2ccc(C)cc2)C(C)C)c(OC)c1,1,8
Cc1cc(C)n(NC(=O)c2ccc(COc3ccccc3Cl)cc2)c(=O)c1C#N,1,6
CSc1ncc(CNC(C)CCc2ccccc2)c(N2CCC(N3CCCCC3)CC2)n1 (stereo not drawn),3,1
Cc1ccc(C(=O)NCc2ccccc2OC(F)F)cn1,0,-1
CCN(CC)C(=O)Cn1cnc2c1c(=O)n(C)c(=O)n2C,-1,-1
COc1ccccc1N(CC(O)CN1CCN(C)CC1)S(=O)(=O)c1ccccc1 (stereo not drawn),-2,-4
NC(=O)C1CCCN(C(=O)c2cc3n(n2)CCN(Cc2ccccc2F)C3=O)C1 (stereo not drawn),12,4
COCc1[nH]nc2c1C(c1cc(OC)c(OC)cc1OC)C(C#N)C(=N)O2 (stereo not drawn),6,6
CCCC(CCC)NC(C)c1n[nH]c(C)n1 (stereo not drawn),2,6
CCOCCN1N=C(C)C(C)n2c1nc1c2c(=O)n(Cc2cc(C)ccc2C)c(=O)n1C (stereo not drawn),0,5
O=c1[nH]c2c(Br)c(Br)c(Br)cc2o1,12,6
CNc1nc2cnc(Nc3ccc(Oc4ccccc4)cc3)cc2n1C,9,0
COc1ccccc1C(=O)N1CCC(C(NC(=O)c2ccccc2)C(=O)NCc2ccccc2)CC1 (stereo not drawn),2,8
CCCCN1N=C(c2ccc(Cl)cc2)Cn2c1nc1c2c(=O)n(C)c(=O)n1C,-5,-7
CC(C)C(=O)NCC1CCN(Cc2cnc(-c3ccco3)nc2)C1 (stereo not drawn),11,7
Cc1nc2nc3ccn(-c4ccccn4)c(=O)c3c(-c3ccc(Cl)cc3)n2n1,0,-1
CN(CCC1CCOCC1)Cc1nc(-c2cccc(Cl)c2)no1,4,2
Cc1ccc(C(CC(=O)N2CCCC2)c2ccccc2)cc1 (stereo not drawn),-6,-11
COc1cc(CNc2nn[nH]n2)cc(Cl)c1OCc1ccccc1F,-17,-23
CN=c1scc(-c2ccccc2F)n1N=Cc1ccc(SC)cc1,-7,-12
CCc1nc(-c2c(-c3ccccc3)ncn2CC(O)c2cccnc2)c(C)[nH]1 (stereo not drawn),1,-7
C=C(Br)COc1nnc(-c2ccccc2)o1,8,4
COc1cccc(CN2CCCC(c3[nH]ncc3-c3cccc(C(F)(F)F)c3)C2)c1O (stereo not drawn),29,15
CCCc1cc(=O)[nH]c(-n2nc(C)cc2NC(=O)c2ccc(F)cc2)n1,5,3
O=[N+]([O-])c1ccc(CS(=O)c2nc(C(F)(F)F)cc(C(F)(F)F)n2)cc1 (stereo not drawn),2,3
O=C(NCc1cccc(C(F)(F)F)c1)c1ccc(CSc2nnc(-c3ccco3)n2-c2ccc(F)cc2)cc1,-2,7
CC1(C(=O)Nc2ccccc2Br)CCN1C(=O)C1CCCCC1 (stereo not drawn),6,4
C(=N/Nc1nc(N2CCCC2)nc(N2CCCC2)n1)/c1ccncc1,-3,-9
CCOC(=O)N(C)CC(=O)NCC1(c2cccc(Cl)c2)CCOCC1,-3,-4
COC(=O)c1c(NC(=O)c2nn3c(C(F)(F)F)cc(-c4ccccc4)nc3c2Cl)sc2c1CCCC2,28,18
CC(C)N1C(=O)COCc2ccc(-c3cccnc3)cc21,5,1
Cn1c(SCC(=O)NC(=O)NCc2ccco2)nnc1-c1ccco1,1,4
CCOc1nc(-c2ccc(C(F)(F)F)cc2)n(-c2ccc(NC(=O)Nc3ccccc3C)cc2)n1,10,18
N#Cc1ccc(CNC(=O)C2(C(=O)Nc3ccc(F)cc3)CC2)c(F)c1,2,-1
CC(C)(C)c1cc(NC(=O)CN(CCc2ccccc2)C(=O)Nc2ccccc2Br)n(-c2ccccc2Cl)n1,16,12
CCc1cc2c(=O)n3c(nc2s1)/C(=C\c1ccc(OC)c(O)c1)CC3,-4,-1
CN(C)C(=O)COC1CN(S(=O)(=O)Cc2cccc(C(F)(F)F)c2)C1,-5,-5
Cc1cc(N2CCC(C3(c4cccnc4)NC(=O)NC3=O)CC2)nc2ccccc12 (stereo not drawn),-1,-2
CC(C)N(CC(=O)N1c2ccccc2-n2cccc2C1c1cccc(Cl)c1)C(=O)c1cccc([N+](=O)[O-])c1 (stereo not drawn),11,15

# Two entries from above, with values under each structure.
# Fields – NPYLR7 agonist	NPYLR7 agonist max-min
Cc1cc(C)n(NC(=O)c2ccc(COc3ccccc3Cl)cc2)c(=O)c1C#N
    1	6
O=C(c1cn[nH]n1)N1CCC2(CC1)CCN(c1ccccc1)C2=O
    2	2

# The list continues:
SMILES,NPYLR7 agonist,NPYLR7 agonist max-min
C=CCc1cccc2cc(C(=O)Nc3ccc(OC)cc3OC)c(=O)oc12,2,4
COc1ccc(OCCNC(=O)Cc2c[nH]c3ccccc23)cc1,8,6
CCOC(=O)CCCCC(=O)c1[nH]c(=O)[nH]c1CSc1nc2ccccc2[nH]1,0,-1
O=C(O)[C@H]1C[C@H](C(=O)NCc2cccnc2)CN(CCc2ccccc2)C1,0,3
O=C(c1cccs1)N1CCN(c2nccc(-c3ccc(Oc4ccccc4)cc3)n2)CC1,0,9
O=C(CCc1nc2ccccc2s1)NCCN1Cc2ccccc2OC(c2ccccc2)C1 (stereo not drawn),16,4
COC(=O)C(c1ccccc1)C1C=CC(NC(=O)c2ccc(F)cc2C(F)(F)F)C1 (stereo not drawn),4,3
C=CC[C@@H]1CC=C[C@@H](C)N1Cc1nc(-c2ccco2)oc1C,15,9
O=c1[nH]c(=S)[nH]c2ccccc12,0,-1
FC(F)(F)c1cccc(/C=N\Nc2nc(N3CCOCC3)nc(N3CCOCC3)n2)c1,-5,-11
Cc1cnc(CNC(=O)CC(=O)Nc2cc(Cl)ccc2C)cn1,14,10
O=C(NCc1cnn2ccccc12)c1ccccc1C1CCNC1 (stereo not drawn),4,2
Cc1ccc(-c2ccc(=O)n(CNC3(c4ccc(F)cc4)CCOCC3)n2)s1,-1,0
Cc1nc([N+](=O)[O-])cn1CCC(=O)N[C@@]1(c2ccccc2)CCCC[C@H]1O,4,6
CCOC(=O)c1ccc(NC(=O)N2CCCN(c3c(-c4ccc(OC)cc4)cnc4ncnn34)CC2)cc1,6,2
CCOC(=O)C1=C(COC(=O)c2sccc2-n2cccc2)NC(=O)NC1c1ccc(OC)cc1 (stereo not drawn),2,9

# Quoted at random: 4 compounds from above.
SMILES,NPYLR7 agonist,NPYLR7 agonist max-min
CCOC(=O)c1ccc(NC(=O)N2CCCN(c3c(-c4ccc(OC)cc4)cnc4ncnn34)CC2)cc1,6,2
Cc1cnc(CNC(=O)CC(=O)Nc2cc(Cl)ccc2C)cn1,14,10
C=CCc1cccc2cc(C(=O)Nc3ccc(OC)cc3OC)c(=O)oc12,2,4
CCOC(=O)CCCCC(=O)c1[nH]c(=O)[nH]c1CSc1nc2ccccc2[nH]1,0,-1
